# Compound activity: PubChem BioAssay, National Center for Advancing Translational Sciences (NCATS)
# HTT promoter inh = Primary qHTS for Identification of Small Molecule Inhibitors of Huntingtin Promoter Activity; HEK293 HTT promoter firefly luciferase reporter (activity 0% = vehicle and -100% = no light), 24 h; Potency, µM (top dose mostly 57.5 µM), for inactives: top-dose activity change, negative = inhibition, actives largely listed as inhibitors; 0.93% of 48,000 active; AID 1508623, 2021; active means well fitted inhibition curve with a large enough effect; inconclusive means small, poorly fitted or top-dose-only effect; inactive means no such curve, though single readings can be large or run the other way; further: nearly all actives have a fitted effect of over 50% in size
#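 Firefly luciferase signal from promoter-reporter HEK293 cells was scaled between vehicle (0%) and zero RLU (-100%). Compounds were tested at final concentrations of up to 57.5 uM over 24 h at 37 degrees C. PTC124 at 50 uM final served as control inhibitor.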
# PMP22 txn = Cell-based coincidence reporter assay to measure PMP22 gene transcription in S16 Pmp22-F2sN cells - Primary screen; AID 1508649, 2021; 2% of 43,000 active; Potency, µM (top dose mostly 57.5 µM), inactives show top-dose activity change, negative = inhibition, hits mostly inhibitors; S16 Pmp22-F2sN Schwann cells (luciferase reporters placed in the Pmp22 gene), FLuc/NLuc coincidence luminescence, 24 h; active = clear falling dose curves in both reporters; inconclusive = both reporters move, but less clearly or upward; inactive = either reporter flat; the % is the NLuc reporter signal; further: on the % scale 0 is the no-effect control and ±100 the full control effect; some results filed as inactive show a strong effect at the top dose
#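 S16 Schwann cells carrying FLuc/NLuc coincidence reporter in the Pmp22 3' UTR treated with compound 24 h at 37C; FLuc then NLuc luminescence read sequentially by dual-luciferase reagents.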
# Active calls of the source: *; ? = inconclusive; / = not tested or not shown; [ ] = remark or other dose. Potency means the concentration at half of the fitted maximal effect. Not all compounds are listed, so the mix of outcomes need not match the whole.
SMILES,HTT promoter inh,PMP22 txn
COc1ccc(N2CCN(CCCNC(=O)c3sc4ncccc4c3-n3cccc3)CC2)cc1,-26%,?
COC(=O)c1cnn(-c2ccc(C(=O)Nc3cc(OC)c(OC)c(OC)c3)cc2)c1N,-16%,-26%
CCOc1ccc(NC(=O)CN2CCN(CC(=O)Nc3ccc(OC)cc3)CC2)cc1,-3%,?
NCc1nc2cccnc2n1Cc1ccccc1Cl,-8%,-13%
COc1cc(C2CC(=O)Oc3c2c(=O)[nH]c2ccccc32)cc(OC)c1OC (configuration not stated),-19%,-4%
CC(C)Oc1ccc(CNC(=O)Cn2nc(N3CCN(c4ccccc4)CC3)ccc2=O)cc1,-15%,-12%
CCN1CCN(C(c2ccccc2Cl)c2sc3nc(-c4ccco4)nn3c2O)CC1 (configuration not stated),0%,-7%
COc1cccc(C(=O)Nc2cccc(OCc3cc(=O)n4cccc(C)c4n3)c2)c1,-3%,-19%
CN(C)c1ccc(NC(=O)Cn2c(SCc3ccc(F)cc3)nc3ccncc32)cc1,-6%,-18%
O=C(Cn1c(-c2cccs2)cc2cc(F)ccc21)N1CCN(c2ccccc2)CC1,-34%,-15%
CCc1ccc(CNc2ccc3c(c2)ncn3C(C)(C)C)cc1,40%[activator],-9%
O=S(=O)(NCc1nc2cccnc2n1Cc1ccc(F)cc1)c1ccc(Cl)s1,-17%,-36%
O=S1(=O)c2ccccc2N(Cc2ccc(Cl)cc2F)c2ccccc21,3%,?
C[C@@]12C(=O)OC(=O)[C@@]1(C)C1CCC2O1,?,/
Cc1ccc(Cl)cc1NC(=O)Cn1c(=O)n(CCC(=O)N2CCc3ccccc3C2)c(=O)c2ccccc21,-3%,-32%
CC(C)c1nn2c(=O)cc(COC(=O)c3cccs3)nc2s1,47%[activator],-15%
CCN(Cc1ccccc1)C(=O)Cn1c(=O)n(-c2ccc(Cl)cc2)c(=O)c2c(C)c(C)sc21,-5%,-3%
Cc1ccc(S(=O)(=O)NC2(C(F)(F)F)NC(=O)N(CCc3ccccc3)C2=O)cc1 (configuration not stated),-11%,-10%
O=C(CC1C(=O)N(c2ccc(F)cc2)C(=O)N1Cc1ccc2c(c1)OCO2)Nc1ccc(Cl)cc1 (configuration not stated),?,?
COc1ccc(C2N3CC4(C)CN2CC(c2ccccc2)(C3)C4=O)cc1OC (configuration not stated),-11%,77%
CCCCCn1c(CCCNC(=O)c2ccccc2)nc2ccccc21,?,?
CCn1c(=NC(=O)c2ccc3c(c2)OCCO3)sc2c(C)ccc(OC)c21,?,9.2µM*
Cn1c2ccccc2c2c(C(=O)N3CCN(c4ccc(F)cc4)CC3)cn(C3CCCCC3)c(=O)c21,?,?
Cc1ccccc1CN1c2ccccc2-c2nc(SCC(=O)c3ccccc3)ncc2S1(=O)=O,-6%,16%
CCOC(=O)c1[nH]c(C)c(CCC(=O)N2CCN(c3cccc(OC)c3)CC2)c1C,-20%,-5%
CCN1C(=O)c2cccc3c(S(=O)(=O)Nc4ccc(O)c(C(=O)O)c4)ccc1c23,0%,-8%
CCSc1ncc(Cl)c(C(=O)N2CCN(c3ccc(OC)cc3)CC2)n1,?,2%
Cc1ccc(C)c(NC(=O)CN2CCCN(Cc3cccc(Cl)c3)S2(=O)=O)c1,-19%,6%
Cc1cc2oc(C(=O)Nc3ccc(S(=O)(=O)N(C)Cc4ccccc4)cc3)cc(=O)c2cc1C,-22%,?
COc1ccc(N2CC(NC(=O)C(c3ccccc3)c3ccccc3)CC2=O)cc1 (configuration not stated),3%,3%
Cc1noc2ncnc(NCc3cccc(Cl)c3)c12,?,-34%
CCN(c1cc(C)cc(C)c1)S(=O)(=O)c1nnc(NC(=O)c2cccs2)s1,-8%,-64%
O=C(COc1ccccc1)Nc1c(C(=O)N2CCN(c3ccc(F)cc3)CC2)oc2ccccc12,-5%,-26%
Cc1ccc(C)c(N2CCN(C(=O)Cn3cnc4nc5c(cc4c3=O)CCCC5)CC2)c1,?,1%
CN(c1ccccc1)S(=O)(=O)c1ccc(NC(=O)c2nc(S(C)(=O)=O)ncc2Cl)cc1,?,2.1µM*
CNC(=O)C1CCN(Cc2cc3ccccc3n2Cc2cccc(C)c2)CC1,-4%,-8%
Cc1ccc(C(=O)Nc2ccc(C(=O)OCc3cc(=O)n4nc(C5CC5)sc4n3)cc2)cc1,0%,17%
O=C(NCCCN1CCN(c2ccccc2F)CC1)c1cc2c(Cl)nc3ccccc3c2s1,-21%,?
CC(C)CC(=O)Nc1nc2nc(-c3ccccc3)cc(=O)n2[nH]1,-20%,15%
Cc1ccc(Cl)cc1N1CCN(C(=O)c2cnc3c(-c4ccc(F)cc4)c(C)nn3c2C)CC1,-9%,0%

# As entered above:
# `CCN1C(=O)c2cccc3c(S(=O)(=O)Nc4ccc(O)c(C(=O)O)c4)ccc1c23` in HTT promoter inh: 0%
# `CCN(c1cc(C)cc(C)c1)S(=O)(=O)c1nnc(NC(=O)c2cccs2)s1` in PMP22 txn: -64%
# `CN(c1ccccc1)S(=O)(=O)c1ccc(NC(=O)c2nc(S(C)(=O)=O)ncc2Cl)cc1` in PMP22 txn: 2.1µM*
# `CCOC(=O)c1[nH]c(C)c(CCC(=O)N2CCN(c3cccc(OC)c3)CC2)c1C` in PMP22 txn: -5%

# (next part)
SMILES,HTT promoter inh,PMP22 txn
Cc1ccc(S(=O)(=O)c2nnn(CC(=O)Nc3ccccc3C)c2N)cc1,-9%,-49%
CC(=O)Nc1ccc(S(=O)(=O)Nc2cc(-c3cn4ccccc4n3)ccc2C)cc1,15%,-18%
Cc1ccc(Nc2c(-c3ccc(N4CCOCC4)cc3)nc3ncccn23)c(C)c1,-11%,-6%
CCOc1ccccc1NC(=O)N1CCc2cc(S(=O)(=O)N3CCC(C)CC3)ccc21,-12%,2%
CN(CC(=O)Nc1ccc(OC(F)(F)F)cc1)S(=O)(=O)c1ccc2c(c1)CCC(=O)N2,?,-30%
Cc1ccccc1CNC(=O)C1CCCN(S(=O)(=O)N(C)c2ccc(F)cc2)C1 (configuration not stated),?,-21%
CCc1ccccc1NC(=O)C1=CC(c2ccc(OC)c(OC)c2)=NS(=O)(=O)N1C,-29%,-23%
COc1ccc(OCc2ccc(-c3nc(C#N)c(N4CCC(C(N)=O)CC4)o3)o2)cc1,-17%,0%
CC(C)c1ccc(CNCCSc2nnnn2C)cc1,-6%,-32%
Nc1ncc(S(=O)(=O)NCc2ccc(F)cc2)cn1,-10%,-2%
COc1cc(OC)cc(C(=O)Nc2cccc(-c3cn4cccnc4n3)c2)c1,-6%,25%
CCCn1c2ccccc2c2cnn(CC(=O)N(CC)c3cc(C)ccc3C)c(=O)c21,-27%,?
Cc1ccc(NC(=O)c2cc(S(=O)(=O)NC3CCCCC3)ccc2F)cc1Cl,?,?
COc1ccc(NC(=O)CSc2nc3ccccc3n2CC(=O)N2CCCCC2C)cc1 (configuration not stated),-24%,14%
Cc1ccc(NC(=O)CSc2nc3c(c(=O)[nH]2)CN(Cc2ccccc2)CC3)cc1Cl,-26%,-15%
COc1ccc(OC)c(C2N=C(N)Nc3nc4ccccc4n32)c1 (configuration not stated),-12%,12%
CCC(=O)Nc1ccccc1-c1nc2ccccc2n(Cc2cccc(Br)c2)c1=O,0%,-11%
COc1ccc(-c2cn3c(n2)sc2cc(C(=O)NCc4ccccc4)ccc23)cc1,-18%,-11%
CCOc1ccc(CCNC(=O)Cn2nc(C)n3c(cc4occc43)c2=O)cc1OCC,-7%,-4%
Cc1ccc(-c2c(C(=O)N(C)Cc3ccccc3)oc(=O)c3ccccc23)cc1,-26%,?
CCC(C)NC(=O)c1cc2c(Cl)nc3ccc(C)cc3c2s1 (configuration not stated),-5%,3%
COc1ccc(CCCc2nnc(SCC(=O)Nc3ccccc3F)o2)cc1C,-12%[11.5 µM],4%
CCc1cccc2c(-c3ccc(F)cc3)nc(SCC(=O)Nc3ccccc3)nc12,-8%,4%
Cc1c(NC(=O)c2nc3ccccc3n(C)c2=O)cccc1[N+](=O)[O-],11%,3%
COC(=O)c1c(-c2cccs2)csc1NC(=O)c1cccc(Cl)c1,53%[activator],-6%
CCCOC(=O)c1ccc(NC(=O)Cn2nnc3sc4c(c3c2=O)CCC(C(C)(C)C)C4)cc1 (configuration not stated),0%,2%
Cc1ccc2c(c1)c1c(c(=O)n(-c3cccc(Cl)c3)c(=O)n1CC(=O)Nc1c(C)cccc1C)n2C,6%,-2%
CCOc1ccccc1NC(=O)c1c(NC(=O)C(C)Oc2cccc(Cl)c2)sc2c1CCCCC2 (configuration not stated),-11%,-9%
COc1ccc(CCC(=O)N2CCc3c([nH]c4ccccc34)C2c2ccc(F)cc2)cc1 (configuration not stated),?,-1%
Cc1ccc(-n2c(=O)c3sccc3n(Cc3cc(=O)n4ccccc4n3)c2=O)cc1,-9%,4%
CCOCCCNC(=O)CN1C(=O)COc2ccc(S(=O)(=O)N3CCCCCC3)cc21,-8%,-10%
Cc1ccc(NC(=O)N2CCC(n3c(C)nc4cccnc43)CC2)c(Cl)c1,-4%,?
CC1CCN(c2ccc(-c3nc(C(C)C)no3)cc2[N+](=O)[O-])CC1,23%,-22%
COc1ccc(CCNC(=O)c2cc(S(=O)(=O)N3CCCC(C)C3)cn2C)cc1OC (configuration not stated),?,-21%
Nc1ccc(C(=O)O)cc1,12%,/
Cn1cc(S(=O)(=O)N2CCCCC2)cc1C(=O)Nc1ccc(OC(F)(F)F)cc1,-23%,?
COc1ccc(-c2c3c(nc4sc(C(=O)Nc5ccccc5F)c(N)c24)CC(C)(C)CC3=O)cc1,-11%,-21%
Clc1cccc(-c2ccc(CNCCSc3nnnn3-c3ccccc3)o2)c1,-11%,?
CC1CCN(C(=O)c2ccc3c(c2)N(Cc2ccccc2)C(=O)c2ccccc2S3(=O)=O)CC1,-29%,?
CCOc1ccccc1NC(=O)C(c1ccccc1)N1Cc2ccccc2C1=O (configuration not stated),-3%,?

# 3 compounds already listed, sorted by length of the SMILES, lowest first.
SMILES,HTT promoter inh,PMP22 txn
COc1ccc(CCCc2nnc(SCC(=O)Nc3ccccc3F)o2)cc1C,-12%[11.5 µM],4%
Cc1ccc(-n2c(=O)c3sccc3n(Cc3cc(=O)n4ccccc4n3)c2=O)cc1,-9%,4%
Cc1ccc2c(c1)c1c(c(=O)n(-c3cccc(Cl)c3)c(=O)n1CC(=O)Nc1c(C)cccc1C)n2C,6%,-2%

# Following part:
SMILES,HTT promoter inh,PMP22 txn
Cc1ccc(NC(=O)c2ccc(=O)n(CC(=O)Nc3c(C)cc(C)cc3C)n2)cc1,?,31%
CC1Cc2cc(S(=O)(=O)N(Cc3ccccc3)C(C)C)ccc2N1C(=O)C1CCC1 (configuration not stated),?,?
CCOC(=O)c1c(C)oc2ncnc(Nc3ccc(CC)cc3)c12,-16%,?
Cc1cc(C)cc(NC(=O)C(=O)NCC(c2cccnc2)N2CCc3ccccc32)c1 (configuration not stated),?,-15%
COc1ccc(CCNC(=O)C2c3ccccc3C(=O)N2Cc2ccccc2)cc1OC (configuration not stated),-7%,-2%
CCc1ccc2oc(-c3cccc(NC(=O)COc4ccccc4Cl)c3)nc2c1,33%[activator],1%
COC(=O)c1ccc(NC(=O)NC(C)c2c(-n3cccc3)sc(C)c2C)cc1 (configuration not stated),-32%,14%
COc1ccc(-c2nc(SCC(=O)NC(C)CCc3ccccc3)n[nH]2)cc1 (configuration not stated),?,?
COC(=O)c1cnn(-c2ccc(C(=O)Nc3ccc(C(C)=O)cc3)cc2)c1N,-1%,7%
Cn1cc(S(=O)(=O)c2ccccc2)c(=O)c2cc(F)c(N3CCOCC3)cc21,-10%,-5%
O=C(c1cccc([N+](=O)[O-])c1)N1c2ncnn2C2(CCCCC2)[C@@H]2CCCC[C@@H]21,-35%,-31%
CCOc1cccc(NC(=O)C2CC(=O)N(C)C(=Nc3cccc(OC)c3)S2)c1 (configuration not stated),-25%,-18%
CCCCn1c(=N)c(S(=O)(=O)c2ccccc2)cc2c(=O)n3cccc(C)c3nc21,-1%,-13%
COc1ccc(OC)c(NC(=O)CSc2ncc3c(n2)-c2ccccc2N(C)S3(=O)=O)c1,-14%,?
Cc1cn2c(=O)cc(COC(=O)c3cccc(NC(=O)c4ccccc4Cl)c3)nc2s1,-23%,-3%
CCCN(CCC)CCCNC(=O)c1cn(CC)c2ccc(S(=O)(=O)N3CCc4ccccc4C3)cc2c1=O,-6%,-14%
COc1ccc2c(c1)c1c(c(=O)n(-c3ccc(C)cc3)c(=O)n1CC(=O)Nc1cc(C)ccc1C)n2C,-11%,5%
Cc1cc(C)c(NC(=O)CSc2nc3c([nH]c4ccccc43)c(=O)n2C)c(C)c1,4%,3%
Cc1ccc(-c2cn3c4c(=O)n(C)c(=O)n(C)c4nc3n2-c2cccc(Cl)c2)cc1,-11%,23%
COc1ccc(NCc2cc3cc4c(cc3n(CC(=O)Nc3cc(C)cc(C)c3)c2=O)OCO4)cc1,?,2%
COc1ccc(CCNc2ncnc3c2c(-c2ccccc2)cn3-c2ccc(Cl)cc2)cc1OC,?,?
CCOc1ccc(CNCCSc2nnnn2C)cc1OC,-5%,-1%
